Six1-Eya2 blk – Six1/Eya2 interaction inhibition; AID 651725; Q15475+O00167; activity change, % (test concentration not listed); AlphaScreen GST-Six1/His-Eya2 binding, biochemical; hits give low values; control for the full effect not named in the record; 360,000 tested, 0.56% active; in the data active = activity change below about -65%; inconclusive = about -30% to -65%; inactive = above about -30%; note: % is set by controls: 0 for no effect and ±100 for the full control effect; compound concentration not given in the record
Target sequence (O00167 whole entry, looked up): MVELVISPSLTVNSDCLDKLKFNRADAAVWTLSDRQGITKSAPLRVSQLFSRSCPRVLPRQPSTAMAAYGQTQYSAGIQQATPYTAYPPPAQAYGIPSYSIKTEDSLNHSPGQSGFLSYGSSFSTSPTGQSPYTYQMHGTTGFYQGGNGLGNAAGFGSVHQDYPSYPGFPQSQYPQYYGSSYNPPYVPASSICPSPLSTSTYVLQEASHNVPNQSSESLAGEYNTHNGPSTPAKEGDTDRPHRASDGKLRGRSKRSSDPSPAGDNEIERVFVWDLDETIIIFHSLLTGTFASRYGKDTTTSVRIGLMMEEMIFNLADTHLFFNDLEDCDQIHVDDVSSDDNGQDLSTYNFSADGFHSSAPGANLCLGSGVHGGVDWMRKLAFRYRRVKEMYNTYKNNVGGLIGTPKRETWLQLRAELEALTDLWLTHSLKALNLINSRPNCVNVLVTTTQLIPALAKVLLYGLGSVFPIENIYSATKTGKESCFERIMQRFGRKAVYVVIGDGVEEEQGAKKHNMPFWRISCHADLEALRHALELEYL
Target sequence (Q15475 whole entry, looked up): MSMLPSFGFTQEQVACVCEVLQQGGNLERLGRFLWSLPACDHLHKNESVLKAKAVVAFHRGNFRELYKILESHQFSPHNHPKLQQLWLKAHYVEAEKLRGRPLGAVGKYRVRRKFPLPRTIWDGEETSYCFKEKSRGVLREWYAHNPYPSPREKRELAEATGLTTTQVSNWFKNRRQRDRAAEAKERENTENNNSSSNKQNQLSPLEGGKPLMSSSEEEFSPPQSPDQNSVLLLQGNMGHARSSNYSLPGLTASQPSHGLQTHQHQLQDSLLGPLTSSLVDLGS
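Compounds are tested against tagged Six1 and Eya2 proteins bridged by glutathione donor and nickel acceptor beads; after a one-hour incubation at 37 °C without light, AlphaScreen emission is recorded.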
D2 ag – human D2 receptor agonism in beta-arrestin assay | P14416 | DiscoveRx PathHunter D2 beta-arrestin, luminescence, 90 min; 100% = 57 uM dopamine signal | activation, % (concentration not given with the values) | 360,000 tested, 0.084% active; in the data active = activation above about 40%; inconclusive = about 15% to 40%; inactive = below about 15%; note: compound concentration not given in the record; the text of the record calls up to 30% inactive
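DiscoveRx PathHunter D2 beta-arrestin cells (2,100/well) attached overnight, then compound-stimulated 90 min at 37 C in HBSS/10 mM HEPES/0.1% Tween-20 buffer; beta-galactosidase complementation read by luminescence after 1 h at ambient temperature. Dopamine 57 uM final (EC100) as control.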
D2 potentiator – positive allosteric modulators of human D2 dopamine receptor. P14416. DiscoveRx D2 beta-arrestin cells, luminescence, 90 min; 100% = 57 uM dopamine signal. potentiation, % (concentration not given with the values). 360,000 tested, 0.23% active. AID 624464; active = potentiation of 50% or more; inconclusive = 30% to 50%; inactive = 30% or less;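 note: compound concentration not given in the record; tested on top of an EC20 dose of dopamine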
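D2 cells co-treated with compound plus 50 nM dopamine (EC20) for 90 min at 37 deg C to detect potentiation. Beta-arrestin recruitment was read as enzyme-fragment luminescence after 1 h at ambient temperature. Full response was set by 57 uM dopamine.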
PINK1 expr mod – changes PINK1 expression; PINK1 immunofluorescence, high-content cytometry, 24 h; Potency, µM (doses to about 76.6 µM), without a hit: top-dose activation (PINK1 increase), most hits filed as activators; 410,000 tested, 0.2% active; active = well fitted activation curve with a large enough effect; inconclusive = small, poorly fitted or top-dose-only effect; inactive = flat fitted curve, though single readings scatter; cell line not stated here;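 note: potency is the fitted concentration of half-maximal effect; % of control where 0% means no effect; nearly all actives have a fitted effect of over 65% in size; a mitochondrial uncoupler was the plate control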
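Fluorescence from anti-PINK1 antibody, together with nuclear and cell stains, was scanned on a laser-scanning cytometer. Before staining, stable-line cells were incubated 24 hours with compounds at 5 concentrations; primary antibody 12 h at 10 degrees C.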
TRPML1 ag – agonists of human TRPML1 channel; TRPML1-expressing cells, Ca2+ dye fluorescence, FDSS; host cell line not named in the record; reference of the full effect not given here; Q9GZU1; activation, % (test concentration not listed); 410,000 tested, 0.12% active; AID 624414; in the data active = activation above about 50%; inconclusive = about 30% to 50%; inactive = below about 30%; note: 0% is about no effect; the text of the record puts the active cut at 80%
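Tetracycline-induced TRPML1-DL cells are seeded and incubated overnight before loading with a no-wash Ca2+ dye and quencher. Agonist activity is taken from the 110 s fluorescence read following compound pin-transfer on an FDSS, before EC80 54-4 challenge.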
CtBP-E1A blk – inhibitors of CtBP/E1A interaction. activity change, % (test concentration not listed). 340,000 tested, 0.49% active. AlphaScreen GST-E1A/His-CtBP binding, 1536-well; hits give low values; control for the full effect not named in the record. AID 651724; in the data active means activity change below about -65%; inconclusive means about -30% to -65%; inactive means above about -30%; note: % is set by controls: 0 for no effect and ±100 for the full control effect; compound concentration not given in the record
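Steps: dispense buffer (Tris pH 8.0, NaCl 300 mM, TCEP 1 mM, BSA, Tween 20); add 5X protein mix (GST-E1A, His-CtBP, 125 nM each); pin 23 nL compound; 2 h at 37 °C, dark; add 5X beads (50 ug/mL); 1 h; read.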
Active calls of the source: *; ? = inconclusive; / = not tested or not shown; [ ] = dose if it differs, or a comment.

Every second line gives: Six1-Eya2 blk	D2 ag	D2 potentiator	PINK1 expr mod	TRPML1 ag	CtBP-E1A blk
> Cc1cccc(C)c1NC(=O)CC(C)c1ccccc1 (configuration not stated)
    -9	-8.9	-9	-1.8%	-0.6	0
> Cc1ccc(NS(=O)(=O)c2cccc3nsnc23)cc1
    -2	-3.4	-9	0.6%	0.1	5
> CC(=O)N1CCc2cc(S(=O)(=O)NC(C(=O)N3CCN(c4ccccc4F)CC3)C(C)C)ccc21 (configuration not stated)
    2	-1.5	-7	-0.9%	-0.5	9
> COc1ccc(-c2cc(C(=O)N(C)Cc3ccccc3F)c3ccccc3n2)cc1OC
    0	?	6	-2.1%	-0.6	4
> CCS(=O)(=O)Nc1cccc(C2=NN(C(C)=O)C(c3cccs3)C2)c1 (configuration not stated)
    3	-3.6	-4	5.1%	0.6	-2
> CCN(CC)S(=O)(=O)c1ccc2[nH]cc(C(=O)NCCCN3CCCCC3)c(=O)c2c1
    15	-2.1	-28	0.7%	1.2	-5
> C=CCn1c2ccccc2c2nnc(SCCN3CCCCC3)nc21
    13	-4.7	-79	0.2%	/	/
> O=C(c1ccco1)N1CCN(c2ncnc3c(-c4ccc(Cl)cc4)nsc23)CC1
    4	-2.2	-6	7.3%	0.0	4
> Cc1cc(=O)n2[nH]c(NCc3c(F)cccc3Cl)nc2n1
    3	2.0	-7	0.8%	1.0	16
> COc1ccccc1N1CCN(C(=O)c2cc(-c3ccc(Cl)cc3)on2)CC1
    2	-3.5	-1	12%[38.3 µM]	0.1	38
> CCC/C=C/c1ccc(CN2C(C(C)C)C(=O)N(Cc3cn(CCC4OCCO4)nn3)CCS2(=O)=O)cc1 (configuration not stated)
    -10	-6.9	-3	?	0.5	?
> Cc1ccccc1NC(=O)CN1C(=O)N/C(=C\c2cccn2-c2cccc(C(=O)O)c2)C1=O
    ?	0.7	-4	0.4%	-1.2	/
> Cc1nnc(SCC(=O)Nc2ncc(Cl)cc2Cl)n1Cc1ccccc1
    0	0.7	23	-2.7%	-0.9	4
> COc1ccccc1NC(=S)NC(NC(=O)C(C)C)C(Cl)(Cl)Cl (configuration not stated)
    5	0.6	-10	3.3%	-0.6	2
> Cc1ccc(S(=O)(=O)N(c2ccccc2)C2CCS(=O)(=O)C2)cc1 (configuration not stated)
    7	-3.4	-8	0.8%	0.0	0
> CCOc1cc(N2CCOCC2)c(OCC)cc1NC(=O)COC(=O)CCc1c[nH]c2ccccc12
    ?	-10	-9	0.2%	-0.8	-26
> O=C(NCCC1=CCCCC1)C1CCN(S(=O)(=O)c2cccc3nsnc23)CC1
    9	2.4	3	-1.1%	0.6	0
> O=C(Nc1ccccc1N1CCN(C(=O)c2ccc(Cl)cc2)CC1)c1cccnc1
    -5	-3.8	-3	-4.0%	0.6	-9
> CC(=O)c1ccccc1NC(=O)COC(=O)c1cc2ccccc2[nH]1
    2	-1.0	1	5.7%	1.6	-15
> COC(=O)C1CCCN1C(=O)c1cccs1 (configuration not stated)
    -1	-1.5	-2	-1.0%	-0.5	-1

Part of the list above, showing only CtBP-E1A blk:
| Molecule | CtBP-E1A blk |
| --- | --- |
| CC(=O)N1CCc2cc(S(=O)(=O)NC(C(=O)N3CCN(c4ccccc4F)CC3)C(C)C)ccc21 (configuration not stated) | 9 |
| CC(=O)c1ccccc1NC(=O)COC(=O)c1cc2ccccc2[nH]1 | -15 |

The list continues.
Every second line gives: Six1-Eya2 blk	D2 ag	D2 potentiator	PINK1 expr mod	TRPML1 ag	CtBP-E1A blk
> COc1ccc(NC(=O)NC(C)c2ccc3c(c2)OCO3)cc1OC (configuration not stated)
    1	-4.2	1	-0.4%	0.3	-4
> COCC(=O)N1CCC(Oc2ccc(C(=O)N(C)CCCC3CCCC3)cc2)CC1
    2	3.1	-10	-1.2%	-0.2	2
> CC1CCN(C(=O)COC(=O)c2cc(S(=O)(=O)N3CCOCC3)ccc2Cl)CC1
    4	-5.5	-1	1.5%	-0.4	-7
> CC(C)(C)OC(=O)NCCc1nnc(SCC(N)=O)o1
    8	0.0	-3	-3.0%[38.3 µM]	-0.5	11
> CC(C)c1nnc(NC(=O)c2ccc3ccccc3c2)s1
    12	4.8	-5	-0.2%	1.6	-1
> Cc1cnc(C(=O)OC(C)C(=O)NCc2ccccc2)cn1 (configuration not stated)
    0	0.4	12	-2.1%	1.0	-18
> O=C(OCC(=O)N1CCc2ccccc2C1)c1ccc(OC(F)F)cc1
    9	-3.1	-18	-0.8%	3.8	-4
> Cc1ccc(C)c(NS(=O)(=O)c2cc(C(=O)N3CCc4ccccc4C3)ccc2Cl)c1
    -13	-4.1	-5	22%[38.3 µM]	1.0	-3
> COC(=O)CSc1nc2c(c(=O)[nH]c(=O)n2C)n1CCC(C)C
    8	-2.3	5	1.6%	5.2	0
> CCOc1cc2[nH]c(=S)n(C3CCN(Cc4ccccc4)CC3)c(=O)c2cc1OCC
    5	-0.3	-9	?	-0.6	10
> Cc1csc(SCC(=O)Nc2ccc(F)cc2Cl)n1
    29	4.2	-9	4.4%	0.1	-19
> CNc1cncc(-c2ccccc2NC(C)=O)n1
    1	-3.9	-11	-0.5%	0.3	-3
> COc1ccc(-c2c(C)c3ccc(O)cc3oc2=O)cc1
    0	-3.5	-13	-1.0%	1.4	-2
> CN(CC(=O)Nc1ccccc1Br)C(=O)CCC1CCCC1
    -10	1.6	-5	0.9%	-0.5	-3
> COc1ccc(N2CC(C(=O)N[C@H](C(=O)NC3CCCCC3)C(C)C)CC2=O)cc1 (some centres not stated)
    5	-5.5	-9	-0.8%	-0.2	13
> COc1ccc(-n2ncc3c2CC(C)(C)CC3NC(=O)c2ocnc2C)cc1 (configuration not stated)
    3	0.0	-14	4.1%	-0.5	5
> Cc1ccc(-n2ncc3c(NCCCN4CCCC4=O)ncnc32)c(C)c1
    3	-2.4	0	-4.1%	-0.5	1
> O=C(NCc1ccccc1)NC1(C(=O)N2CCCC2)CCCCC1
    0	-3.6	-4	1.1%	-0.7	1
> CCCN(CC(=O)Nc1ccccc1C)C(=O)c1ccc(C2SCCS2)cc1
    7	-5.7	-5	0.7%	-0.4	-11
> COc1cc(OC)cc(C(=O)NCC(=O)OCC(=O)c2ccc3c(c2)-c2ccccc2C3)c1
    -2	-1.4	-5	-1.7%	2.0	2

Additional structures.
Every second line gives: Six1-Eya2 blk	D2 ag	D2 potentiator	PINK1 expr mod	TRPML1 ag	CtBP-E1A blk
> O=C(CCC(=O)Nc1ccc(Cl)cc1Cl)NNC(=O)[C@@H]1CCCC[C@@H]1C(=O)O
    6	-3.7	1	-0.5%	1.0	9
> O=c1c2nccnc2[nH]c(=S)n1Cc1ccccc1Cl
    5	-6.1	-15	1.7%	0.2	/
> CCOC(=O)C1=C(C)N(Cc2ccccc2)C(=O)NC1c1ccc(OC)cc1 (configuration not stated)
    0	-2.9	-25	1.9%	-0.2	1
> COC(=O)c1cc(=O)n(Cc2cccs2)c(=Nc2ccccc2)s1
    -5	-2.7	-9	4.3%	1.9	/
> CC(C)(C)C(=O)OCc1nc(-c2ccc3c(c2)OCCO3)cs1
    14	-2.2	-10	16%	2.9	/
> O=C(CC1C(=O)NCCN1Cc1cccc(F)c1)NCCCOc1cccnc1 (configuration not stated)
    0	-1.4	-5	-0.2%	0.6	-2
> C=C1N(C)c2cc([N+](=O)[O-])c(N)cc2C1(C)C
    ?	5.2	-10	-0.3%	-0.6	0
> CCCCCCNC(=O)Cc1nc2nc(C)cc(C)n2n1
    0	-1.5	-10	2.2%[38.3 µM]	0.1	2
> COC(=O)C1(C(=O)OC)C(C(=O)c2ccccc2)C1c1ccccc1 (configuration not stated)
    8	-1.1	3	0.5%	2.9	9
> CC(C)Nc1nc(NC(C)C)nc(N(C)n2cnnc2)n1
    -1	-2.8	?	-0.2%	-0.7	14
> CC(=O)N1CCN(c2ccc(Nc3nc(C)nc4c3oc3ccccc34)cc2)CC1
    -14	3.3	-1	1.2%	0.1	0
> O=C(O)C1(P(=O)(c2ccc(Cl)cc2)c2ccc(Cl)cc2)CCCC1
    2	-3.1	-3	-0.2%	0.0	1
> COc1ccc(/C=N/NC(=O)C(=O)NCc2cccnc2)cc1
    -1	-3.0	-2	2.4%	-0.4	4
> COc1ccccc1CNS(=O)(=O)c1ccc2c(c1)N(C(C)=O)CCO2
    2	-0.7	-9	0.1%	0.1	10
> COc1ccccc1C(NC(=O)C1CCN(CCOc2ccc3ccccc3c2)CC1)c1ccccn1 (configuration not stated)
    -24	-4.4	-22	-0.3%	-0.4	-12
> CCOC(=O)n1cc(C(=O)c2ccccc2O)cn1
    -4	1.1	0	0.9%	0.8	-14
> COc1ccc(NC(=O)COC(=O)C2COc3ccccc3O2)cc1OC (configuration not stated)
    -9	-2.8	-2	1.4%	-0.2	11
> Cc1ccc(-c2noc(CCC(=O)NCc3ccco3)n2)cc1
    -2	-0.4	-1	-3.3%[38.3 µM]	-0.3	10
> Cn1cccc1-c1cc(C(=O)N/N=C/c2cc(Br)ccc2O)[nH]n1
    -83*	7.1	-30	12%	2.1	-87*
> CCC(=O)OCC(=O)Nc1cc([N+](=O)[O-])ccc1Cl
    9	-3.9	-3	-0.6%	-0.6	-14

More compounds
Every second line gives: Six1-Eya2 blk	D2 ag	D2 potentiator	PINK1 expr mod	TRPML1 ag	CtBP-E1A blk
> Nc1nnc(CCc2ccccc2)s1
    -1	-3.2	-6	-3.9%[38.3 µM]	-0.8	6
> CN1CCC[C@H]1CCNc1ccc2c(=O)c3ccccc3n(C)c2c1
    -22	3.2	-7	-0.1%	-0.2	-24
> Fc1ccc(C2=Nn3c(Cc4ccccc4F)nnc3SC2)cc1
    -1	-4.0	-11	-0.1%	0.6	7
> CC1CN(C(=O)c2cc(-c3ccc(Cl)s3)nc3ccccc23)CC(C)O1 (configuration not stated)
    4	-1.9	-6	0.6%	1.0	-16
> COc1ccc(N=Nc2[nH]c3ccc(C)cc3c2O)cc1
    -6	0.3	-1	11%	1.2	0
> COc1ccc(NC(=O)c2c(F)c(F)c(F)c(F)c2F)cc1Cl
    6	-0.5	4	-0.3%	0.2	1
> COc1ccc2c(c1OC)C(=O)OC2N1C(=O)CC[C@H]1C(=O)Nc1ccc(F)cc1F (some centres not stated)
    6	-5.5	-30	1.5%	/	1

Screening data as filed in PubChem BioAssay.
